# MenB inh – M. tuberculosis MenB inhibitors, primary screen, biochemical, absorbance. MenB enzyme assay, absorbance read-out; some hits fall short of the stated cut. inhibition, %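 (about 12 µg/mL by stock and volumes)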. 100,000 tested, 0.43% active;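 active means mean of two replicates above 30%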;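 further: 0% = no compound and 100% = wells with inactive enzyme; the first replicate is given; strong numbers were not always called active; inactives centre near -10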
# Target sequence (P9WNP5 whole entry, looked up): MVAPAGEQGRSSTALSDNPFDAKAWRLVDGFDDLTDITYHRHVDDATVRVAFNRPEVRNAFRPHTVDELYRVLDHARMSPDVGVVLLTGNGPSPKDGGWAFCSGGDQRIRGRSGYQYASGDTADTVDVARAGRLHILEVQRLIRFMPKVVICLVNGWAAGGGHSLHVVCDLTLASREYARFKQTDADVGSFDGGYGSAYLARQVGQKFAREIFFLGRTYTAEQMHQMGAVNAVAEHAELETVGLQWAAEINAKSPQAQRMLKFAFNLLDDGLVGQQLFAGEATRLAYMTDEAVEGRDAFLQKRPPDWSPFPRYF
# PV pol inh – poliovirus RdRp elongation inhibitors, primary screen, biochemical, fluorescence polarization, total intensity | poliovirus polymerase elongation; active compounds read low | AID 588519, 2011 | 150,000 tested, 0.66% active | % elongation, % (compound at 16.7 µg/mL) | Genome polyprotein (Poliovirus type 1 (strain Mahoney)), P03300; in the data active means % elongation below about 90%; further: some results filed as inactive read as strong as hits
# Target sequence (P03300 1749-2209 limits assumed): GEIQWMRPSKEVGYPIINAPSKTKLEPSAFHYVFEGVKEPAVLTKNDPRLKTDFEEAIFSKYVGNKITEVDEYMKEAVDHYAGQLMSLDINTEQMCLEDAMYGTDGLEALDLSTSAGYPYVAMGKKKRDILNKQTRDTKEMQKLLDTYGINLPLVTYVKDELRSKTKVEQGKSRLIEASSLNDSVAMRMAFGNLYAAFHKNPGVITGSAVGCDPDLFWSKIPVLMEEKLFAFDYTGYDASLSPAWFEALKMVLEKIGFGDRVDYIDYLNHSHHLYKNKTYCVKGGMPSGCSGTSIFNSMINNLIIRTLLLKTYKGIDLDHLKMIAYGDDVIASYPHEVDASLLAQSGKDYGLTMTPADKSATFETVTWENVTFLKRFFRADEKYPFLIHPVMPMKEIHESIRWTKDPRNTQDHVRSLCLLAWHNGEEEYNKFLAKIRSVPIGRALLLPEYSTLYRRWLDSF
# MbtI inh – MbtI salicylate synthase inhibitors, primary screen, biochemical, fluorescence intensity | P9WFX0 | purified MbtI enzyme, fluorescence intensity read-out | inhibition, %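 (about 17 µg/mL by stock and volumes)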 | 100,000 tested, 0.89% active | AID 493033, 2011;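 active means above 50% in both replicates, above 80% if mildly self-fluorescent; inactive means the rest, strongly fluorescent compounds included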;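 further: 0% = mean of negative and 100% = mean of positive controls; one replicate is shown; some compounds called inactive have numbers as strong as hits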
# PV pol inh intensity – further read-out of PV pol inh, marked with its call; % elongation; measured here: total intensity read-out; formula for this scale not given here;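 total fluorescence in place of polarization; lower means less elongation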
# An asterisk follows results filed as active; / = not tested or not shown; & = joins results of further samples. Compounds were not picked by outcome; about 1.7% have a hit in one of these screens.
structure	MenB inh	PV pol inh	PV pol inh intensity	MbtI inh
COc1cccc(OC)c1OCCNCc1ccco1	-9.7	104.0	102.0	-6.1
CC1CC(=O)c2cnc(N3CCc4ccccc43)nc2C1 (configuration not stated)	-11.0	103.0	105.0	-0.1
Cc1ccc(N2C(=O)CC(=O)N(c3ccc(C)cc3C)C2=O)c(C)c1	-50.1	114.0	108.0	/
O=C1N=C(c2ccccc2)S/C1=C\c1ccc2c(c1)OCO2	-0.4	102.0	121.0	2.0
C[N+]1(CC2COC(C3CC=CCC3)O2)CCCC1 (configuration not stated)	-19.2	104.0	104.0	-3.2
Clc1cccc2c(N3CCCCCC3)cnnc12	11.3	100.0	103.0	-13.7
CCc1ccc(-n2c(=O)c3ccccc3n(CC(=O)C(C)(C)C)c2=O)cc1	-13.4	103.0	105.0	5.2
NC(=S)NCCC[C@H](N)C(=O)O	-2.2	100.0&99.0	102.0&101.0	-1.0
COc1ccc(-c2nc(CS(=O)CC(=O)NC3CCCC3)c(C)o2)cc1 (configuration not stated)	-3.3	101.0	105.0	104.2
CC12CN3CC(C)(CN(C1)C3C1C(=O)Nc3ccccc31)C2 (configuration not stated)	2.1	101.0	108.0	-5.7
CC(C(=O)Nc1ccc(Br)cc1)N1CCN(c2ccccc2)CC1 (configuration not stated)	-11.2	101.0	107.0	-5.8
CNC(=O)Cc1ccc(NC(=O)N2CCCCc3ccccc32)cc1	-15.3	100.0	100.0	0.4
O=C(NCc1ccco1)c1c(NC(=O)C2COc3ccccc3O2)sc2c1CCC2 (configuration not stated)	-0.2	105.0	116.0	/
CC(NC(=O)Nc1cccc(C(F)(F)F)c1)c1nc2ccccc2[nH]1 (configuration not stated)	-20.9	102.0	105.0	0.0
CCCN(Cc1cccs1)C(=O)Nc1ccc(Cl)cc1	-10.3	102.0	102.0	-10.7
CC(Sc1nnc2c(n1)[nH]c1ccccc12)C(=O)NC1CC1 (configuration not stated)	-48.8	102.0	101.0	8.6
CC1(C)CC(=O)C2=C(C1)Nc1ccc3ccccc3c1C2c1ccco1 (configuration not stated)	-46.3	99.0	100.0	-194.9
CN(C)S(=O)(=O)c1ccc(C(=O)NC2CCCc3ccccc32)cc1 (configuration not stated)	/	102.0	104.0	-2.9
Cc1noc(C)c1CSc1nc2ccccc2c(=O)n1Cc1ccccc1Cl	-22.6	105.0	99.0	-6.5
CC(C)(C)N/N=C/c1cccc(OC(F)F)c1	-5.1	90.0	97.0	4.4

# 3 entries already listed, sorted by formula weight, falling:
structure	MenB inh	PV pol inh	PV pol inh intensity	MbtI inh
COc1ccc(-c2nc(CS(=O)CC(=O)NC3CCCC3)c(C)o2)cc1 (configuration not stated)	-3.3	101.0	105.0	104.2
CC(NC(=O)Nc1cccc(C(F)(F)F)c1)c1nc2ccccc2[nH]1 (configuration not stated)	-20.9	102.0	105.0	0.0
CC1CC(=O)c2cnc(N3CCc4ccccc43)nc2C1 (configuration not stated)	-11.0	103.0	105.0	-0.1

# Other structures follow.
structure	MenB inh	PV pol inh	PV pol inh intensity	MbtI inh
CC(=O)Nc1no[n+]([O-])c1C(N)=O	0.6	103.0	104.0	23.1
OCCNc1nc2nonc2nc1NCCO	-10.4	100.0	100.0	7.8
Cn1cnnc1SC1CCCCC1NS(=O)(=O)c1ccc(Cl)cc1 (configuration not stated)	11.6	100.0	103.0	4.6
CCN1CCCC1CNC(C)C(=O)Nc1ccc(Oc2ccccc2)cc1 (configuration not stated)	0.7	97.0	99.0	-3.7
CCOC(=O)C(C#N)c1nc2ccccc2nc1N(CC)CC (configuration not stated)	-33.9	78.0	139.0	9.7
O=C(CCc1nnc2ccc(NCc3ccccc3)nn12)NC1CCCC1	-1.0	99.0	103.0	-11.7
O=C(CCCN1C(=O)CCC1=O)Nc1cccc2c1CCCC2	1.3	103.0	104.0	50.8
c1csc(-c2nn[nH]n2)c1	-5.6	103.0	104.0	0.3
CCn1c(SCC(=O)/C(C#N)=C2\Sc3ccccc3N2C)nc2ccccc21	-6.3	114.0	126.0	-2.2
CCCNC(=O)OCC12CC3CC(CC(C3)C1)C2	-21.8	102.0	104.0	3.8
OCCN(CCO)Cc1ccccc1	-27.0	100.0	99.0	-10.9
Cc1cccc(CCNC(=O)C2CCN(S(=O)(=O)c3cccc4cccnc34)CC2)c1	-12.0	103.0	109.0	-4.1
CCCn1c2ccccc2c2cnn(CC(=O)NCCN(C)C3CCCCC3)c(=O)c21	-17.3	104.0	102.0	109.7
CCCCn1c(=O)c2ccccc2n2c(=S)sc(-c3ccccc3)c12	-11.9	102.0	111.0	-3.6
Cc1cc2cc3c(C)cc(=O)oc3c(C)c2o1	-0.6&5.3	101.0&101.0	99.0&99.0	-16.8&-23.9
Cc1cccn2c(=O)c3cc(C(=O)NC4CCSC4=O)sc3nc12 (configuration not stated)	-25.4	101.0	103.0	-1.8
O=C(Nc1nccs1)c1cc2c(=O)n3ccccc3nc2s1	-20.3	103.0	114.0	-7.3
O=C(NC1CCCC1)c1ccccc1OCc1ccccc1	/	102.0	104.0	-0.3
CC(C)CNC(=O)c1ccc2c(c1)[nH]c(=O)n2C(C)C	1.4	102.0	101.0	30.6
Cc1cc(C)[n+]2oc(C)cc2n1	-13.4	103.0	102.0	-0.8
Cc1ccc(C)c(COc2ccc(C)nc2NC(=S)NCc2ccccc2)c1	3.9	101.0	92.0	-0.4
CC(CC(=O)Nc1ccc(Cl)cc1)NCc1nnc2ccccn12 (configuration not stated)	11.4	98.0	91.0	12.7
Cc1n[nH]c(C)c1Cc1c(F)cccc1Cl	-1.5	104.0	97.0	-1.9
Cc1noc(C)c1S(=O)(=O)N1CCCN(C/C(O)=C(\C#N)c2nc3ccccc3[nH]2)CC1	-0.6	113.0	138.0	10.6
C=CCN1CC[C@]23c4c5ccc(O)c4O[C@H]2C(=O)CC[C@@]3(O)[C@H]1C5	1.3	98.0	103.0	-0.1
Cc1ccc(S(=O)(=O)CCc2nc(S(=O)(=O)c3ccc(C)cc3)c(N(C)C)o2)cc1	-3.9	104.0	105.0	-22.9
CNC(=S)NC1CCS(=O)(=O)C1 (configuration not stated)	-2.2	100.0	103.0	-6.8
CCCNC(=O)N1CCN(c2ccc(Cl)c(Cl)c2)CC1	-0.9	100.0	104.0	-24.1
Cc1ccccc1NC(=O)C(C)Sc1nc2ncccc2[nH]1 (configuration not stated)	0.2	102.0	103.0	-7.6
COc1ccc(N=Cc2ccc(Br)s2)cc1	0.0	101.0	102.0	1.0
CCCCc1c2c(nn1-c1ccccc1F)CC(c1ccccc1)CC2=O (configuration not stated)	-41.6	107.0	110.0	/
CCN(CC)c1nc(C)nc2sc(C(=O)N3CCCCCC3)c(C)c12	-26.6	104.0	105.0	-1.4
O=C(CSc1ccc(Cl)cc1)N1CCc2c([nH]c3ccccc23)C1C(F)(F)F (configuration not stated)	-25.6	103.0	114.0	-7.0
Cc1ccc(S(=O)(=O)N2c3ccccc3S(=O)c3ccccc32)cc1	-12.2	100.0	102.0	-14.2
CC(C)n1c(O)c(N=NC(=S)NCCN2CCOCC2)c2ccccc21	-30.9	105.0	106.0	-15.8
O=S(=O)(c1ccccc1)n1nc(-c2ccccc2)nc1NCc1cccs1	-35.7	99.0	102.0	-6.5
CC(C)N(C(=O)c1ccc(C(=O)N2CCCCC2)cc1)C(C)C	-36.6	101.0	102.0	-19.9
CCC(C)NC(=O)c1ccc(Sc2ccc(Cl)cc2)c(NC(C)=O)c1 (configuration not stated)	-10.6	100.0	96.0	-7.9
O=C(O)CNC(=O)CSc1ccccn1	-20.3	104.0	106.0	-4.0
O=C(CCCSc1nc2ccccc2s1)Nc1nccs1	-11.7	103.0	100.0	1.8

# (cont.)
Compound,MenB inh,PV pol inh,PV pol inh intensity,MbtI inh
N#CCCN(C(=O)Cc1noc2ccccc12)c1ccccc1,-3.8,101.0,101.0,-19.4
CCN(CC)S(=O)(=O)c1cccc(-c2nnc(SCc3nc4cc(C(=O)O)ccc4c(=O)[nH]3)o2)c1,2.0,102.0,115.0,-6.2
CCC1Sc2ccccc2NC1=O (configuration not stated),-55.6,102.0,105.0,29.6
CCOC(=O)Cn1c(-c2c(Cl)cccc2Cl)noc1=O,-4.0,107.0,106.0,-8.4
COc1ccc(NC(=O)CC2(Cc3ccccc3)CCOC(C)(C)C2)cc1 (configuration not stated),0.0,106.0,104.0,/
NC(=O)C1CCN(C2CC(=O)N(Cc3ccc(F)cc3)C2=O)CC1 (configuration not stated),-13.4,101.0,103.0,-3.7
O=C1CS/C(=N/C(=O)NC2(C(F)(F)F)Oc3ccc(Cl)cc3O2)N1 (configuration not stated),-43.9,104.0,104.0,44.5
CCCN1C(=O)c2cc(C(=O)Nc3ccc(OC)c(OC)c3)ccc2C1Nc1ccc(OC)c(OC)c1 (configuration not stated),-19.2,102.0,100.0,0.1
Cc1cccc2nc(CSc3nnc(CN4CCCC4)n3Cc3ccccc3)cc(=O)n12,-31.7,107.0,107.0,-6.8
CSC1=NCCN1C(=O)c1ccccc1,-14.7,101.0,103.0,3.6
NNC(=O)CSCc1nc(-c2ccccc2)cs1,17.9,102.0,102.0,2.8
CSCC[C@@H]1NC(=O)[C@@H]2CCCN2C1=O,-1.3,103.0,104.0,-6.1
Cc1cc(-c2ccc(NC(=O)C3CC3)c(C)c2)ccc1NC(=O)C1CC1,-25.0,110.0,110.0,/
N/C(=N\S(=O)(=O)c1ccc(Cl)cc1)c1ccccc1,-16.2,104.0,92.0,/
NC(=O)CC1NC(=O)c2ccccc21 (configuration not stated),22.0,98.0,103.0,-4.1
Cc1cc(-n2c(C)cc(C(=O)CSc3nnc(COc4ccccc4Cl)o3)c2C)no1,-7.3,101.0,100.0,-0.8
CC(C)CC1C(=O)N2CCC[C@H]2C2(O)O[C@](NC(=O)C3C=C4c5cccc6[nH]c(Br)c(c56)C[C@H]4N(C)C3)(C(C)C)C(=O)N12 (some centres not stated),0.3,101.0,100.0,-19.1
CCc1cccc(NC(=O)CCn2c(=O)c3cccn3c3ccccc32)c1,-11.7,103.0,103.0,50.5
COc1cc(C(=O)c2cc(Cl)ccc2N)cc(OC)c1OC,-39.5,99.0,101.0,6.5
Cc1cc(/C=C(\C#N)C(=O)N2CCn3c2nc2ccccc23)c(C)n1-c1cccc(C(F)(F)F)c1,-19.8,103.0,104.0,0.9
O=C(NC1CCCCC1)c1nc(-c2cccc(C(F)(F)F)c2)no1,-54.8,104.0,102.0,-14.0
CN1C(C)(C)CCCC1(C)C,-5.7&-1.4,101.0&99.0,101.0&101.0,-18.4&-1.4
Cc1ccccc1-n1c(=O)c(C#N)cc2c(=O)n3ccccc3nc21,-76.0,101.0,119.0,86.2
O=C(OCCCCN1C(=O)c2ccccc2C1=O)c1ccc(-n2cnnn2)cc1,-10.1,/,/,0.6
N#C/C(=C\C1CC2C=CC1C2)c1nc2ccccc2[nH]1 (configuration not stated),/,101.0,105.0,-48.0
CCOC(=O)N1CCC(c2nc3ccccc3[nH]2)CC1,-5.9,100.0,98.0,4.7
CCCS(=O)(=O)Nc1cc2oc3ccccc3c2cc1OC,-17.2,106.0,103.0,105.8
COc1cc2c(cc1OC)CN(C(=O)c1ccc(Cl)nc1)CC2,-20.9,101.0,109.0,-9.8
CC(C)(C)c1ccccc1OCC(=O)Nc1cccc2ccccc12,-9.5,100.0,101.0,-8.3
CN(Cc1ccccc1)C(=O)COC(=O)c1c2c(nc3ccccc13)CCC2,/,102.0,101.0,-2.5

# Compound profiles, as listed above. Order of values: MenB inh | PV pol inh | PV pol inh intensity | MbtI inh
# `CCCS(=O)(=O)Nc1cc2oc3ccccc3c2cc1OC` in the list: -17.2 | 106.0 | 103.0 | 105.8
# `O=C(NC1CCCCC1)c1nc(-c2cccc(C(F)(F)F)c2)no1` in the list: -54.8 | 104.0 | 102.0 | -14.0
# `CN1C(C)(C)CCCC1(C)C` in the list: -5.7&-1.4 | 101.0&99.0 | 101.0&101.0 | -18.4&-1.4
# `Cc1ccccc1-n1c(=O)c(C#N)cc2c(=O)n3ccccc3nc21` in the list: -76.0 | 101.0 | 119.0 | 86.2
# `N#C/C(=C\C1CC2C=CC1C2)c1nc2ccccc2[nH]1` (configuration not stated) in the list: / | 101.0 | 105.0 | -48.0

# (next part)
Compound,MenB inh,PV pol inh,PV pol inh intensity,MbtI inh
O=C(NCCCn1ccnc1)c1ccccc1NS(=O)(=O)c1ccc(Cl)cc1,-51.5,105.0,92.0,2.1
CCN(CC)C(=O)c1cccc(NC(=O)c2cc(-c3ccco3)nc3ccccc23)c1,-25.9,106.0,108.0,70.9
COc1cc2c(cc1NC(=O)COC(=O)C1CC(=O)N(Cc3ccco3)C1)oc1ccccc12 (configuration not stated),-21.5,105.0,114.0,129.9
CC(OC(=O)c1cc(S(=O)(=O)N2CCOCC2)ccc1F)C(N)=O (configuration not stated),-9.6,95.0,93.0,3.2
Cc1ccc(SCC(=O)Nc2cccc3nsnc23)c(C)c1,-33.5,99.0,97.0,78.4
O=C(NCC1(c2ccccc2)CCCC1)c1noc2c1COc1ccccc1-2,-50.6,106.0,103.0,-3.1
